# MARV entry inh – Marburg virus entry inhibition; Potency, µM (series often up to 37.8 µM), for inactives: top-dose activity change, negative = inhibition, hits mostly inhibitors; AID 540276; hit rate 1.8% among 300,000; Marburg virus pseudotyped entry inhibition, cell reporter; control for the full effect not named in the record; about a third of the inactives were read at about 46 µM; active = well fitted inhibition curve with a large enough effect; inconclusive = small, poorly fitted or top-dose-only effect, or effect the other way; inactive = flat fitted curve, though single readings scatter; tested in HEK293 cells; about a fifth of its hits are not listed in these tables; note: % is set by controls: 0 for no effect and ±100 for the full control effect; luciferase read-out
# NS1 inh – inhibitors of influenza NS1 protein function | S. cerevisiae slowed by influenza A NS1, growth recovery by OD600 | Potency, µM (titrated, usually from 46.1 µM), for inactives: at the highest dose activity, positive = more growth | hit rate 0.4% among 270,000; note: actives are rising curves; nearly all actives have a fitted effect of over 50% in size
#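 Recovery from NS1-induced slow growth read by OD600 in budding yeast switched to galactose assay medium (pH 6.0, -URA) at 1:100 dilution. Compound 23 nl per well; the matching strain lacking NS1 serves as control.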
# Cruzain Triton – inhibitors of Trypanosoma cruzi cruzain with detergent | P25779 | Potency, µM, for inactives: max response, negative = inhibition, hits mostly inhibitors | purified cruzain, Z-FR-AMC fluorescence, 0.01% Triton | hit rate 0.43% among 200,000; active = well fitted curve in the direction sought with a large enough effect; inconclusive = small, poorly fitted or top-dose-only effect, or another doubt; inactive = no such curve, though single readings can be large; an effect the other way counts as inactive or inconclusive;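 note: plate controls were neutral wells for no effect and buffer without enzyme for full effect; nearly all actives have a fitted effect of over 40% in size; top concentration of the series not given in the record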
# Target sequence (P25779 123-467 limits assumed): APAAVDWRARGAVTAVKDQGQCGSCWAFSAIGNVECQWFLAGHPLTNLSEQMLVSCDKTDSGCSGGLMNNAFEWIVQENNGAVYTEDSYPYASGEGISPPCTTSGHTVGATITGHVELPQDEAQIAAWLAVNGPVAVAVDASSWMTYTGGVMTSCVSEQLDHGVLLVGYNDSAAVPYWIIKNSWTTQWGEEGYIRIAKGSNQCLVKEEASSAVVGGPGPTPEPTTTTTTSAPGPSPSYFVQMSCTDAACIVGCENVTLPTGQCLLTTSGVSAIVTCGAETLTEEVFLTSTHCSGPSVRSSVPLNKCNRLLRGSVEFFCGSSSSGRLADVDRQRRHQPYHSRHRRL
#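 15 min RT preincubation of 1.5 nM cruzain with compound, then 2 uM Z-FR-AMC added; kinetic AMC fluorescence, 60 s delta. Triton X-100 0.01%, pH 5.5.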
# StopGo reporter – lowers the luciferase signal of an FMDV 2A StopGo reporter | human cells with a luciferase reporter of 2A StopGo recoding; control for the full effect not named in the record | Potency, µM (top dose mostly 57.9 µM), for inactives: top-dose signal change, negative = less light | hit rate 1.2% among 410,000; active = well fitted falling curve with a large enough effect; inconclusive = small, poorly fitted or top-dose-only effect; inactive = no such curve, though single readings can be large or run the other way; tested in HEK293T cells; note: % is set by controls: 0 for no effect and ±100 for the full control effect; nearly all actives have a fitted effect of over 45% in size; luciferase light after 4 h
# Lassa entry inh – Lassa virus entry inhibition; Lassa virus pseudotype entry inhibition, cell reporter; control for the full effect not named in the record; Potency, µM (highest dose often 37.9 µM), for inactives: at the top dose activity change, negative = inhibition, actives largely listed as inhibitors; hit rate 1.2% among 300,000; active means well fitted inhibition curve with a large enough effect; inconclusive means small, poorly fitted or top-dose-only effect, or effect the other way; inactive means flat fitted curve, though single readings scatter; tested in HEK293 cells; note: % is set by controls: 0 for no effect and ±100 for the full control effect; nearly all actives have a fitted effect of over 50% in size; luciferase read-out
# Cruzain noTriton – blocks cruzain activity in detergent-free assay; Potency, µM, for the others: max response, negative = inhibition, most hits filed as inhibitors; hit rate 2.3% among 200,000; AID 1476; P25779; purified cruzain, Z-FR-AMC fluorescence, no detergent; active = well fitted curve in the direction sought with a large enough effect; inconclusive = small, poorly fitted or top-dose-only effect, or another doubt; inactive = no such curve, though single readings can be large; an effect the other way counts as inactive or inconclusive;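 note: plate controls were enzyme without inhibitor for no effect and buffer without enzyme for full effect; nearly all actives have a fitted effect of over 40% in size; top concentration of the series not given in the record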
#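 Purified cruzain at 1.5 nM, pre-incubated 15 min with compound at room temperature in 100 mM sodium acetate pH 5.5, 5 mM DTT, 0.00005% Triton X-100. Reaction started with 2 uM Z-FR-AMC; AMC fluorescence increase over 60 s gives rate.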
# SARS PLP yeast – inhibitors of SARS-CoV papain-like protease in yeast; hit rate 0.19% among 330,000; S. cerevisiae expressing SARS-CoV PLpro, growth rescue; control for the full effect not named in the record; AID 485353; Potency, µM (top dose mostly 32.9 µM), for the others: at the highest dose activity, positive = growth rescue; note: 0% is about no effect; nearly all actives have a fitted effect of over 55% in size; growth read by luminescence after 48 h
# RE007 growth inh – less growth of the S. pombe RE007 Vpr strain. hit rate 0.21% among 360,000. AID 651644. Potency, µM (doses to about 92.2 µM), without a hit: at the top dose activity change, negative = less growth. S. pombe RE007 Vpr strain, BacTiter-Glo ATP luminescence, 24 h; control for the full effect not named in the record; active = well fitted falling curve with a large enough effect; inconclusive = small, poorly fitted or top-dose-only effect; inactive = no such curve, though single readings can be large or run the other way;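 note: % is set by controls: 0 for no effect and ±100 for the full control effect; nearly all actives have a fitted effect of over 50% in size; the assay follows cell death caused by Vpr and the record does not say whether a fall means rescue or toxicity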
#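 Fission yeast RE007 carrying one integrated HIV-1 vpr copy, seeded at OD 0.01 in PMG+AL medium with 23 nL pinned compound. Grown 24 h at 30 degrees; viability read by BacTiter-Glo luminescence after 5 min.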
# An asterisk follows results filed as active; ? = inconclusive; / = not tested or not shown; & = joins results of further samples; [ ] = remark or other dose. Unless noted, calls come from the whole dose curve; as a rule, active means well fitted rising curve with a large enough effect; inconclusive means small, poorly fitted or top-dose-only effect; inactive means no such curve, though single readings can be large or run the other way. Potency is the fitted concentration of half-maximal effect.
SMILES,MARV entry inh,NS1 inh,Cruzain Triton,StopGo reporter,Lassa entry inh,Cruzain noTriton,SARS PLP yeast,RE007 growth inh
O=C(CCc1ccccc1)NCCSc1ccccc1,16%[46.1 µM],/,/,28%,17%[46.1 µM],/,0%,14%
CC(OC(=O)CNC(=O)c1sc2ccccc2c1Cl)C(=O)NC1(C#N)CCCCC1 (stereo not given),16%,/,/,10%,-11%,/,-1%,-8%
CCOC(=O)c1ccc(NC(=S)NNC(=O)COC)cc1,11%,7%,4.8%,-11%,1%,-6%,10%,5%
CN(C)/C=C1\NC(=S)N(c2ccccc2)C1=O,5%[46.1 µM],-1%,/,-14%,22%[46.1 µM],/,-1%,8%
COc1cc([N+](=O)[O-])ccc1NC(=O)c1cccc(NC(=O)C(C)C)c1,-1%[46.1 µM],/,/,-11%,3%,/,0%,-7%
O=C(Nc1ccc(Oc2ccccc2)cc1)C1CCN(S(=O)(=O)c2ccccc2)CC1,3%[46.1 µM],/,-3.6%,?,-1%[46.1 µM],-5%,/,/
Cc1cc(C)cc(NC(=O)Cn2c(=O)oc3cc(S(=O)(=O)N4CCC(C)CC4)ccc32)c1,1%,5%,-2.9%,-22%,/,?,0%,7%
COc1cccc(CC(NC(C)=O)C(=O)NC2CCN(c3c(Cc4ccccc4)c(C)nc4ncnn34)CC2)c1OC (stereo not given),?,-18%,0.3%,-28%,7%,26%,13%,-4%
CCCN1CCC(=O)N(CCSc2ccc(OC)cc2)CC1,/,-2%,/,-5%,/,/,-2%,-7%
COc1cccc(CNC(=O)C(=O)NCC(c2cccs2)S(=O)(=O)c2ccccc2)c1 (stereo not given),/,/,-0.7%,?,-1%[46.1 µM],-1%,/,/
c1ccc(CSc2nnc(-c3ccco3)c(-c3ccco3)n2)cc1,-3%,6%,14µM*,-12%,-1%,16µM*,-20%,-16%
COc1cc(/C=N/NC(=O)c2ccncc2)ccc1OC(=O)c1ccc([N+](=O)[O-])cc1,7%,18%,1.5%,-3%,-10%,2%,2%,12%
O=C(O)CCN1c2cccc3cccc(c23)S1(=O)=O,0%[46.1 µM],2%,/,-4%,-7%[46.1 µM],/,0%,-18%
CCS(=O)(=O)NCC(c1cccnc1)N1CCN(c2ccccc2OC)CC1 (stereo not given),/,?,0.3%,-12%,/,-6%,-2%,6%
COc1ccc(C(=O)NCc2ccc(N3CCN(C)CC3)cc2)cc1,28%,0%,/,3%,13%,/,-1%,2%
CCC(=O)N1CCN(c2c(Cl)cccc2[N+](=O)[O-])CC1,1%,-4%,0.7%,1%,0%,1%,0%,21%
Cc1ccccc1Cc1c(C)nc2nc(SCC(=O)N3CCC4(CC3)OCCO4)nn2c1C,5%,8%,-0.5%,?,8%,26%,-4%,-9%
COc1ccc(-c2noc(CNS(=O)(=O)c3ccc(Br)cc3)n2)cc1OC,-19%[46.1 µM],/,-6.9%,-7%,22%[46.1 µM],-5%,/,/
COc1ccc(C2=NOC(C(=O)NCCCn3ccnc3)C2)cc1 (stereo not given),?,6%,2.1%,3%,17%,-5%,-4%,-5%
COc1cc(CNc2ccc(C(=O)O)cc2)cc(Br)c1OCC(=O)NC(C)(C)C,2%,-1%,-6.1%,-15%,11%,-10%,2%,-1%
CCOC(=O)C1(CC2CCCCO2)CCN(Cc2nc3ccccc3[nH]2)CC1 (stereo not given),/,4%,/,-7%,/,/,0%,-14%
CCc1cc(=O)oc2cc(C)cc(OC(C)C(=O)NC3CC(C)(C)NC(C)(C)C3)c12 (stereo not given),/,-6%,/,-4%,/,/,3%,2%
FC(F)(F)c1nc(-c2ccncc2)ncc1-c1nnnn1-c1ccccc1,-1%,-24%,1.0%,-13%,-7%,4%,0%,-15%
O=C(CSc1nnc(-c2cc3ccccc3cc2O)n1Cc1ccco1)N1CCc2ccccc2C1,?,0%,-1.2%,-1%,?,?,-12%,-6%
Cc1ccc(NC(=O)c2ccccc2OCC(=O)c2ccccc2)cc1,-14%,5%,0.8%,-6%,-1%,-1%,8%,-5%
CN1CCN(c2nc(-c3ccccc3)nc(-c3ccccc3)c2C#N)CC1,?,0%,/,-17%,?,/,2%,-4%
COC(=O)CSc1nnc(-c2cccnc2)o1,2%,28%,6.2%,30%[activator],24%,1%,5%,4%
COC(=O)c1c(C)sc(-c2c(-c3ccc(OC)c(F)c3)[nH]c3c2c(=O)n(C)c(=O)n3C)c1O,?,/,-0.2%,-21%,?,-7%,/,/
CCn1c(C(=O)N2CCC(C(=O)NCCc3ccccc3)CC2)cc2sccc21,15%[46.1 µM],/,-2.1%,-26%,/,?,/,/
O=C1c2ccccc2C(=O)N1CCSc1ncn[nH]1,16%,-4%,5.0%,2%,?,-6%,0%,-1%
Cc1csc2c(NCCCN3CCOCC3)ncnc12,0%,5%,/,-5%,28%,/,1%,-11%
O=C1Nc2ccc(Br)cc2/C1=C/C(=O)c1ccc2c(c1)OCO2,/,-59%,/,28µM*,/,/,-20%,14%
Cc1cc2oc(C(=O)NCCc3ccc(S(N)(=O)=O)cc3)cc(=O)c2cc1C,-4%[46.1 µM],1%,-1.9%,-2%&-10%,1%&5%[46.1 µM],13%,-1%,?
COc1ccc(CCC(=O)Nc2cccc(S(=O)(=O)N3CCOCC3)c2)cc1OC,?,/,/,-8%,1%,/,-3%,-22%
COC(=O)c1sc2cnccc2c1N,-1%,-16%,-8.4%,9%,20%,-22%,-1%,-10%
Cc1cccc(NC(=O)c2ccc3c(=O)n4c(nc3c2)CCCCC4)n1,?,/,/,-69%,?,/,-8%,-11%
O=c1cc(C(F)(F)F)oc2c1ccc1ccccc12,10%,3%,-7.9%,13%,?,26%,-15%,-4%
Cn1c(-c2ccccc2)c(C(=O)CCl)c2ccccc21,?,-7%,/,10µM*,-27%,/,-2%,-20%
O=C(CCCn1c(=O)[nH]c2ccc(Br)cc2c1=O)NCc1ccc(Cl)cc1,-26%[46.1 µM],/,/,-21%,?,/,2%,-13%
CC(C)CC(NC(=O)C1CCC(C)CC1)C(=O)Nc1ccccc1F (stereo not given),?,6%,/,0%,/,/,2%,45%
CCCC(c1nnnn1CS(=O)(=O)c1ccc(C)cc1)N1CCN(c2ccccc2)CC1 (stereo not given),?,-10%,-2.2%,-12%,11µM*,-1%,1%,4%
CC(NC(=O)Cn1cnc2c1c(=O)n(C)c(=O)n2C)c1ccccc1 (stereo not given),1%,-11%,1.6%,-19%,0%,-4%,11%,14%
CCN1CCN(C(=O)CCn2c(=O)c3cccn3c3cccnc32)CC1,/,8%,/,-2%,/,/,-3%,-2%
CCc1ccc(NC(=O)Nc2ccsc2C(=O)OC)cc1,/,-82%,/,-64%,/,/,-17%,?
Cc1c(C(=O)NCc2cccnc2)oc2ccc(S(=O)(=O)N3CCCC(C)C3)cc12 (stereo not given),-20%&-20%,-31%,-2.8%,-25%,?,?,/,1%
CC(C)OC(=O)CSc1nnc(-c2ccc([N+](=O)[O-])cc2)o1,9%,-3%,/,-10%,2%[46.1 µM],/,0%,11%
COc1ccccc1NC(=O)CSc1ccc(-c2cccs2)nn1,-9%[46.1 µM],/,/,?,-12%,/,-6%,-8%
COCCNC(=O)c1onc(CSc2cc(C)ccc2C)c1C(=O)O,/,3%,2.5%,-15%,/,-1%,-1%,-5%
C=CCc1cccc2cc(C(=O)N(CC)CC)c(=O)oc12,9%,?,-0.8%,-16%,6%,-2%,5%,19%
COc1ccc(NC(=O)C2CCCN2C(=O)Nc2ccc(OC)cc2)cc1 (stereo not given),20%[46.1 µM],2%,/,5%,/,/,-5%,5%
COc1cc(/C=C/C(=O)O)cc(Br)c1O,2%[46.1 µM],-48%,/,5%,-12%,/,-2%,-5%
CCOC(=O)c1cc(CC)sc1NC(=O)C1CC1,4%&4%,-23%,-4.3%,-14%,4%,-10%,-1%,5%
CN(CC(=O)NCCc1ccc(Cl)cc1)S(=O)(=O)c1ccc2c(c1)c(=O)n(C)c(=O)n2C,/,2%,3.9%,?,/,?,-2%,1%
CCOc1ccc(-c2nnn(CCC(=O)O)n2)cc1OC,?,4%,6.2%,-20%,5%,-5%,1%,0%
CN(C)S(=O)(=O)c1ccc(C(=O)NCCN=C2NS(=O)(=O)c3ccccc32)cc1,-9%[46.1 µM],2%,/,13%,10%[46.1 µM],/,1%,11%
Cc1ccccc1-n1c(=O)[nH]c(=O)c2c(N)c(C(=O)c3ccc(Cl)cc3)sc21,-2%,-2%,-3.5%,0%,?,20%,3%,3%
O=C(O)C(Cc1ccnc2ccccc12)=NO,29%,/,/,-17%,9%[46.1 µM],/,/,?
Cc1ccc(Cl)c(OCC(=O)NN2CCN(C)CC2)c1,/,3%,/,0%,/,/,0%,-12%
Cc1ccc(CNC(=O)CCC(=O)Nc2nnc(C3CCCCC3)s2)cc1,2%,-5%,/,4%,?,/,-1%,-19%
CCOc1ccc(CNC(=O)c2ccc3c(c2)c(C)c(C)n3C)cc1,/,/,-4.7%,7%,?,-28%,/,/
# More records
SMILES,MARV entry inh,NS1 inh,Cruzain Triton,StopGo reporter,Lassa entry inh,Cruzain noTriton,SARS PLP yeast,RE007 growth inh
Cc1noc(C)c1CSc1nnc2scc(-c3ccc(Cl)cc3)n12,-10%,-2%,4.3%,-21%,-18%,-3%,/,-2%
COc1cccc(CNC(=O)Nc2cc(C(=O)NCc3cccc(F)c3)ccc2N2CCCC2)c1,/,/,-5.6%,-8%,?,24%,/,/
O=C(CN(Cc1ccccc1)C1=NCCS1)c1ccc(Cl)cc1,?,-15%,1.0%,-16%,13%,4%,-24%,1%
CC(C)NOC(=O)c1ccc(Cl)cc1,-28%,/,/,-7%,-11%,/,-7%,-6%
Cc1oc(-c2ccc(C(=O)Nc3cc(F)ccc3F)cc2)nc1COc1ccccc1,/,/,-0.9%,-27%,15%[46.1 µM],10%,/,/
O=S(=O)(c1ccc2ccccc2c1)N1CCN(C(=S)Nc2ccc(F)c(Cl)c2)CC1,?,-6%,-1.0%,-14%,?,?,7%,6%
COc1cc(/C=N/Nc2nc(=O)[nH]nc2C)cc([N+](=O)[O-])c1O,/,4%,/,43%[activator],/,/,-1%,-12%
Cc1cccc(NC(=O)c2ccc(N(C)C3CCCCC3)c([N+](=O)[O-])c2)n1,?,-1%,-4.1%,?,?,0%,-12%,-22%

# Rows are unselected; any-hit rate near 4.6%.
